Screening data as filed in PubChem BioAssay.
MbtI inh = inhibitors of Mycobacterium tuberculosis siderophore enzyme MbtI. P9WFX0. purified MbtI enzyme, fluorescence intensity read-out. inhibition, %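 (about 17 µg/mL by stock and volumes)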. 0.89% of 100,000 active. AID 493033;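 active means above 50% in both replicates, above 80% if mildly self-fluorescent; inactive means the rest, strongly fluorescent compounds included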;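 further: 0% = mean of negative and 100% = mean of positive controls; one replicate is shown; some compounds called inactive have numbers as strong as hits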
Target sequence (P9WFX0 whole entry, looked up): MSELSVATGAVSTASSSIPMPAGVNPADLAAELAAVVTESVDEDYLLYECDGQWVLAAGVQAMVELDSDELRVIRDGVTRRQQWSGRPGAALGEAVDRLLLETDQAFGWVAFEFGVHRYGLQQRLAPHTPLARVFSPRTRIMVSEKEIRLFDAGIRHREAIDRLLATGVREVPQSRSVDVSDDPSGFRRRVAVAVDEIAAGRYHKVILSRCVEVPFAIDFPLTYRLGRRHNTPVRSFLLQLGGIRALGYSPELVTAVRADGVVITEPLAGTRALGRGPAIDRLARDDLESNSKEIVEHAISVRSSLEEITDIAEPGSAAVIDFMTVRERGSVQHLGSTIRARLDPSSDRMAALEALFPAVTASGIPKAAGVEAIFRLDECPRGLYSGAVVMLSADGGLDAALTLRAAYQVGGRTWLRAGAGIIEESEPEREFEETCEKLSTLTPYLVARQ
MenB inh = inhibitors of Mycobacterium tuberculosis MenB enzyme | P9WNP5 | MenB enzyme assay, absorbance read-out; some hits fall short of the stated cut | inhibition, %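 (about 12 µg/mL by stock and volumes)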 | 0.43% of 100,000 active;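 active means mean of two replicates above 30%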;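 further: 0% = no compound and 100% = wells with inactive enzyme; the first replicate is given; strong numbers were not always called active; inactives centre near -10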
Polio RdRp inh = poliovirus RNA polymerase inhibition | poliovirus polymerase elongation, fluorescence polarization; stronger effect = lower value | AID 588519 | 0.66% of 150,000 active | P03300 | % elongation, % (compound at 16.7 µg/mL); in the data active means % elongation below about 90%; further: some results filed as inactive read as strong as hits
Target sequence (P03300 1749-2209 limits assumed): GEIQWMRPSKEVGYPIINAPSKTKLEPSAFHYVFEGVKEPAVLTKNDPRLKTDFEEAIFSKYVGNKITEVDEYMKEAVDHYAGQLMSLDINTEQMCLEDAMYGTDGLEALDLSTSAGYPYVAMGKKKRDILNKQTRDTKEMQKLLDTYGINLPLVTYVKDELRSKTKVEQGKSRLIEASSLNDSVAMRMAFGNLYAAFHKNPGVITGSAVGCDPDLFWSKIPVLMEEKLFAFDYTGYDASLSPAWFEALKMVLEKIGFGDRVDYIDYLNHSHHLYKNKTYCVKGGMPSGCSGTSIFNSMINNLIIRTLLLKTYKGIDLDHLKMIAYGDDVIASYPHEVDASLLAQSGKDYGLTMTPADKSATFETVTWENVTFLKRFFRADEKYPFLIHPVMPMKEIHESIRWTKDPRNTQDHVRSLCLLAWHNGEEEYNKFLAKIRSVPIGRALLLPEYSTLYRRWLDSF
Polio RdRp inh intensity = also measured in Polio RdRp inh; calls as there; % elongation; measured here: total intensity read-out; formula for this scale not given here;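 total fluorescence in place of polarization; lower means less elongation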
An asterisk follows results filed as active; & = joins results of further samples.

CC(C)N=c1scc(-c2cccs2)n1/N=C/c1ccc(O)c(O)c1O was read as MbtI inh 15, MenB inh -29, Polio RdRp inh 110 and Polio RdRp inh intensity 117.
For Cc1ccc(OC(C)C(=O)Nc2ccc3c(c2)OCCO3)cc1 (stereo not drawn) the results were MbtI inh -7, MenB inh -14, Polio RdRp inh 103 and Polio RdRp inh intensity 102.
`O=C(O)Cc1nonc1NCNc1nonc1CC(=O)O` gave MbtI inh -9, MenB inh 7, Polio RdRp inh 101 and Polio RdRp inh intensity 99.
`CC(OC(=O)NC1CCCCC1)c1cc2ccccc2o1` (stereo not drawn) gave MbtI inh -1, MenB inh -22, Polio RdRp inh 103 and Polio RdRp inh intensity 109.
Screening CC1=CS(=O)(=O)CC1Sc1ncn[nH]1 (stereo not drawn) returned MbtI inh -7, MenB inh -20, Polio RdRp inh 104 and Polio RdRp inh intensity 102.
`CCc1ccc(-n2c(C)ccc2C)cc1` gave MbtI inh -3, Polio RdRp inh 104 and Polio RdRp inh intensity 110.
Cn1cc(P(=S)(N2CCOCC2)N2CCOCC2)cc1P(=S)(N1CCOCC1)N1CCOCC1 was read as MbtI inh 23, MenB inh -29, Polio RdRp inh 100 and Polio RdRp inh intensity 84.
Screening Cc1ccc(C)c(OCCCC(=O)Nc2ccc(N3CCOCC3)cc2)c1 returned MbtI inh -83, MenB inh -14, Polio RdRp inh 100 and Polio RdRp inh intensity 99.
Screening COc1ccc(CNC(=S)NCCO)cc1 returned MbtI inh -6, MenB inh -3, Polio RdRp inh 101 and Polio RdRp inh intensity 103.
For COc1ccc(NC(=S)N(CCCN2CCOCC2)Cc2ccccn2)cc1 the results were MbtI inh -2, MenB inh -5, Polio RdRp inh 100 and Polio RdRp inh intensity 100.
Screening Cc1ccc(NC(=O)CN(C)C(=O)CSc2n[nH]c(=O)n2Cc2ccccc2)cc1 returned MbtI inh -10, MenB inh 8, Polio RdRp inh 99 and Polio RdRp inh intensity 100.
For CC(NC(=O)c1cccc2c1C(=O)N(Cc1cccnc1)C2)c1cccs1 (stereo not drawn) the results were MbtI inh -1, MenB inh 3, Polio RdRp inh 104 and Polio RdRp inh intensity 102.
For CCOc1cc2oc(=O)c3c(c2cc1Cl)CCC3 the results were MbtI inh -10, Polio RdRp inh 102 and Polio RdRp inh intensity 108.
`CCn1c(Cc2ccccc2)nnc1SCC(=O)c1ccc2c(c1)OCO2` gave MbtI inh 1, MenB inh 0, Polio RdRp inh 98 and Polio RdRp inh intensity 101.
Screening O=C1NC(c2ccccn2)Nc2sc3c(c21)CCCC3 (stereo not drawn) returned MbtI inh 10, MenB inh -45, Polio RdRp inh 101 and Polio RdRp inh intensity 107.
Screening N#Cc1c(N2C(=O)CCC2=O)sc2c1CCCC2 returned MbtI inh -4, MenB inh -19, Polio RdRp inh 110 and Polio RdRp inh intensity 110.
For N#CCCn1cc(CO)c(-c2ccc(F)cc2)n1 the results were MbtI inh -3, Polio RdRp inh 102 and Polio RdRp inh intensity 96.
For O=C(/C=C/c1ccccc1)Nc1ccc(O)cc1 the results were MbtI inh 9, MenB inh 4, Polio RdRp inh 100 and Polio RdRp inh intensity 106.
COC(=O)c1cc2oc(C)cc2n1CC(=O)c1ccccc1 was read as MbtI inh 6, MenB inh -21, Polio RdRp inh 102 and Polio RdRp inh intensity 106.
`N#CC1=C(N)OC2=C(C(=O)CCC2)C1CCc1ccccc1` (stereo not drawn) gave MbtI inh 6, MenB inh 10, Polio RdRp inh 101 and Polio RdRp inh intensity 103.
For CCc1cc(C(N)=S)ccn1 the results were MbtI inh 1&1, MenB inh -1&-6, Polio RdRp inh 102&100 and Polio RdRp inh intensity 102&100.
COc1ccc(C2=NS(=O)(=O)N(C)C(C(=O)N3C(C)CCCC3C)=C2)cc1 (stereo not drawn) was read as MbtI inh -5, MenB inh 6, Polio RdRp inh 100 and Polio RdRp inh intensity 102.
For O=C(CN1C(=O)C2C3C=CC(C3)C2C1=O)N1CCSC1=NCCc1ccccc1 (stereo not drawn) the results were MbtI inh -14, MenB inh -7, Polio RdRp inh 100 and Polio RdRp inh intensity 99.
For CCCc1cc(=O)oc2cc(C)cc(OC(=O)c3ccco3)c12 the results were MbtI inh -11, MenB inh -35, Polio RdRp inh 99 and Polio RdRp inh intensity 103.
Cc1ccn2cc(-c3cccs3)cc2c1 was read as MbtI inh -16, MenB inh -20, Polio RdRp inh 99 and Polio RdRp inh intensity 107.
`CCCSc1nc2c(c(=O)n1-c1ccccc1)SCC2` gave MbtI inh 3, MenB inh 13, Polio RdRp inh 99 and Polio RdRp inh intensity 101.
For Cn1nccc1NS(=O)(=O)c1ccc(NC(=O)C(F)(F)F)cc1 the results were MbtI inh 6, MenB inh -16, Polio RdRp inh 102 and Polio RdRp inh intensity 99.
For CCCc1cc(-n2cnc3ccccc32)n2c(nc3ccccc32)c1C#N the results were MbtI inh -12, MenB inh -7, Polio RdRp inh 93 and Polio RdRp inh intensity 107.
For S=C1SCN(CCN2CCOCC2)CN1Cc1ccccc1 the results were MbtI inh 15, MenB inh -54, Polio RdRp inh 103 and Polio RdRp inh intensity 104.
For CC1CN(C(=O)COC(=O)c2ccc3c(c2)C(=O)N(c2ccc(Cl)cc2)C3=O)CC(C)O1 (stereo not drawn) the results were MbtI inh -12, MenB inh 9, Polio RdRp inh 106 and Polio RdRp inh intensity 108.
`O=c1c2ccccc2ncn1Cc1ccccc1` gave MbtI inh 5, MenB inh 2, Polio RdRp inh 104 and Polio RdRp inh intensity 110.
CCOC(=O)c1oc2ccccc2c1CN1C(=O)c2ccccc2C1=O was read as MbtI inh 8 and MenB inh 12.
Screening CCNC(=S)N(Cc1ccccc1)Cc1nc2ccccc2c(=O)[nH]1 returned MbtI inh 88, MenB inh -25, Polio RdRp inh 104 and Polio RdRp inh intensity 101.
Screening O=C(O)CCN=Cc1c(O)c2ccccc2oc1=O returned MbtI inh 14, MenB inh -18, Polio RdRp inh 102 and Polio RdRp inh intensity 96.
Screening O=C(COc1ncnc2ccccc12)NCC1CCCCC1 returned MbtI inh -1, Polio RdRp inh 102 and Polio RdRp inh intensity 107.
For N#CCCn1nc(-c2ccccc2)cc1C(=O)N/N=C/c1ccncc1 the results were MbtI inh 12, MenB inh 10, Polio RdRp inh 104 and Polio RdRp inh intensity 100.
For S=c1[nH]c2ccccc2n1Cc1ccccc1Cl the results were MbtI inh 12, MenB inh -54, Polio RdRp inh 101 and Polio RdRp inh intensity 100.
`CC(=O)Nc1ccc2c(CSc3nnc4nc(C)cc(C)n34)cc(=O)oc2c1` gave MbtI inh 30, MenB inh -5, Polio RdRp inh 102 and Polio RdRp inh intensity 108.
`CCc1ccc(-c2nc(SCC(=O)NC3(C#N)CCCCC3)n[nH]2)cc1` gave MbtI inh 13, MenB inh -21, Polio RdRp inh 101 and Polio RdRp inh intensity 100.
For CCN(CC(=O)NCc1ccc(F)cc1)C(=O)c1cn(CC)c2nc(C)ccc2c1=O the results were MbtI inh 0, MenB inh -23, Polio RdRp inh 102 and Polio RdRp inh intensity 102.

Pulled by structure from the list above, 2 records:
`O=c1c2ccccc2ncn1Cc1ccccc1` gave MbtI inh 5, MenB inh 2, Polio RdRp inh 104 and Polio RdRp inh intensity 110.
Cc1ccn2cc(-c3cccs3)cc2c1 was read as MbtI inh -16, MenB inh -20, Polio RdRp inh 99 and Polio RdRp inh intensity 107.

Carrying on:
Screening CCc1n[nH]c2c1/C(=N\O)CC(C)(C)C2 returned MbtI inh -16, MenB inh 16, Polio RdRp inh 99 and Polio RdRp inh intensity 105.
`O=C1OCCC1OC(=O)C(c1ccccc1)c1ccccc1` (stereo not drawn) gave MbtI inh 9, MenB inh 13, Polio RdRp inh 104 and Polio RdRp inh intensity 104.
Screening COc1cc(NC(=O)CN2C3CCC2CC(O)(c2cccnc2)C3)cc(OC)c1 (stereo not drawn) returned MbtI inh 3, MenB inh -52, Polio RdRp inh 103 and Polio RdRp inh intensity 102.
Screening CCOC(=O)CN1CCCCCC1=O returned MbtI inh 3, MenB inh 7, Polio RdRp inh 101 and Polio RdRp inh intensity 101.
`COc1cccc(C2CC(=O)N(c3ccccc3)C3=C2C(=O)CCC3)c1OC` (stereo not drawn) gave MbtI inh 13, MenB inh 19, Polio RdRp inh 101 and Polio RdRp inh intensity 103.
`CCC(SC1=NC(=O)C(c2ccccc2)C(=O)N1)C(=O)Nc1sc2c(c1C#N)CCCC2` (stereo not drawn) gave MenB inh -52, Polio RdRp inh 95 and Polio RdRp inh intensity 90.
Cc1cccc(NC(=O)N2CCOc3ccc(Cl)cc32)c1 was read as MbtI inh -4, MenB inh -25, Polio RdRp inh 102 and Polio RdRp inh intensity 96.
For O=C(/C=C/c1ccco1)NC1CCCC1 the results were MbtI inh 34, MenB inh -5, Polio RdRp inh 104 and Polio RdRp inh intensity 104.
CCOCC(O)CN (stereo not drawn) was read as MbtI inh -4, MenB inh -10, Polio RdRp inh 100 and Polio RdRp inh intensity 103.
For CCOc1ccc(N2C(=O)CC(N(Cc3ccc(Cl)cc3)C(=O)c3ccc(Cl)cc3)C2=O)cc1 (stereo not drawn) the results were MenB inh -17, Polio RdRp inh 108 and Polio RdRp inh intensity 107.
`CN(C)C(=O)CN1c2cccc3cccc(c23)S1(=O)=O` gave MbtI inh -12, MenB inh -1, Polio RdRp inh 97 and Polio RdRp inh intensity 95.
Screening CNc1nc(OCC(F)(F)C(F)F)nc(N(c2ccccc2)c2ccccc2)n1 returned MbtI inh 29, MenB inh 23, Polio RdRp inh 101 and Polio RdRp inh intensity 101.
Screening N#Cc1ccccc1Sc1ccccc1C(=O)N(CC1CCCO1)C1CCS(=O)(=O)C1 (stereo not drawn) returned MbtI inh 13, MenB inh 6, Polio RdRp inh 103 and Polio RdRp inh intensity 107.
For COc1ccccc1OCCC(=O)C(C#N)c1nc2ccccc2[nH]1 (stereo not drawn) the results were MbtI inh -7, MenB inh -1, Polio RdRp inh 107 and Polio RdRp inh intensity 111.
For O=C1CSC(c2cn(-c3ccccc3)nc2-c2ccccc2)N1CCCl (stereo not drawn) the results were MbtI inh -10, Polio RdRp inh 102 and Polio RdRp inh intensity 106.
For O=S(=O)(c1ccc(F)cc1)n1nc(C(F)(F)F)c2cnccc21 the results were MbtI inh 54, MenB inh -5, Polio RdRp inh 101 and Polio RdRp inh intensity 101.
Screening O=C(COC(=O)Cc1c[nH]c2ccccc12)NCc1ccco1 returned MbtI inh -6, MenB inh 2, Polio RdRp inh 105 and Polio RdRp inh intensity 110.
O=C(CCCOc1ccccc1)Nc1ccccc1 was read as MbtI inh 5 and MenB inh -11.
Screening CC1=C(C)CC2C(=O)N(c3ccc(N4CCOCC4)cc3)C(=O)C2C1 (stereo not drawn) returned MbtI inh -3, Polio RdRp inh 100 and Polio RdRp inh intensity 96.
For COc1ccc(CC(=O)Nc2cccc(-c3ccc(S(C)(=O)=O)nn3)c2)cc1 the results were MbtI inh -26, MenB inh -5, Polio RdRp inh 104 and Polio RdRp inh intensity 106.
For CCc1cc(C(=O)Cc2nc(C)cs2)c(O)cc1O the results were MenB inh -10, Polio RdRp inh 103 and Polio RdRp inh intensity 97.
`S=C(NCc1ccccc1)Nc1cccc2ccccc12` gave MenB inh -18, Polio RdRp inh 99 and Polio RdRp inh intensity 107.
For CCN(CC(=O)NC1CCCCCC1)S(=O)(=O)c1ccc(Cl)cc1 the results were MbtI inh -7, MenB inh 0, Polio RdRp inh 101 and Polio RdRp inh intensity 99.
COc1ccc2oc(C(=O)OCC(=O)c3ccc4c(c3)OCO4)c(C)c2c1 was read as MbtI inh -6, MenB inh -20, Polio RdRp inh 108 and Polio RdRp inh intensity 107.
O=C(O)c1cc(-c2cccs2)nn1-c1ccccc1 was read as MbtI inh 0, Polio RdRp inh 101 and Polio RdRp inh intensity 106.
For O=C(NCc1ccc(Cl)cc1)NC1CCCCC1 the results were MbtI inh -15, MenB inh -7, Polio RdRp inh 111 and Polio RdRp inh intensity 103.
`Cn1nnnc1SCc1cccc(S(=O)(=O)N2CCOCC2)c1` gave MbtI inh 9, MenB inh -13, Polio RdRp inh 105 and Polio RdRp inh intensity 103.
C=CCN(CC=C)Cc1ccc(C(=O)OC)o1 was read as MbtI inh -6, MenB inh 6, Polio RdRp inh 99 and Polio RdRp inh intensity 102.

Among those listed so far, these contain a Cl atom:
For CCOc1cc2oc(=O)c3c(c2cc1Cl)CCC3 the results were MbtI inh -10, Polio RdRp inh 102 and Polio RdRp inh intensity 108.
For CC1CN(C(=O)COC(=O)c2ccc3c(c2)C(=O)N(c2ccc(Cl)cc2)C3=O)CC(C)O1 (stereo not drawn) the results were MbtI inh -12, MenB inh 9, Polio RdRp inh 106 and Polio RdRp inh intensity 108.
For S=c1[nH]c2ccccc2n1Cc1ccccc1Cl the results were MbtI inh 12, MenB inh -54, Polio RdRp inh 101 and Polio RdRp inh intensity 100.
Cc1cccc(NC(=O)N2CCOc3ccc(Cl)cc32)c1 was read as MbtI inh -4, MenB inh -25, Polio RdRp inh 102 and Polio RdRp inh intensity 96.
For CCOc1ccc(N2C(=O)CC(N(Cc3ccc(Cl)cc3)C(=O)c3ccc(Cl)cc3)C2=O)cc1 (stereo not drawn) the results were MenB inh -17, Polio RdRp inh 108 and Polio RdRp inh intensity 107.
For O=C1CSC(c2cn(-c3ccccc3)nc2-c2ccccc2)N1CCCl (stereo not drawn) the results were MbtI inh -10, Polio RdRp inh 102 and Polio RdRp inh intensity 106.
For CCN(CC(=O)NC1CCCCCC1)S(=O)(=O)c1ccc(Cl)cc1 the results were MbtI inh -7, MenB inh 0, Polio RdRp inh 101 and Polio RdRp inh intensity 99.
For O=C(NCc1ccc(Cl)cc1)NC1CCCCC1 the results were MbtI inh -15, MenB inh -7, Polio RdRp inh 111 and Polio RdRp inh intensity 103.
